VDR inh: inhibitors of human vitamin D receptor; P11473; VDR-SRC2-3 peptide fluorescence polarization, 2 h; Potency, µM, for inactives: max response, negative = inhibition, most hits filed as inhibitors; 400,000 tested, 0.93% active; active = well fitted inhibition curve with a large enough effect; inconclusive = small, poorly fitted or top-dose-only effect, or another doubt; inactive = no such curve, though single readings can be large or run the other way; note: series mostly up to about 120 µM
Target sequence (P11473 whole entry, looked up): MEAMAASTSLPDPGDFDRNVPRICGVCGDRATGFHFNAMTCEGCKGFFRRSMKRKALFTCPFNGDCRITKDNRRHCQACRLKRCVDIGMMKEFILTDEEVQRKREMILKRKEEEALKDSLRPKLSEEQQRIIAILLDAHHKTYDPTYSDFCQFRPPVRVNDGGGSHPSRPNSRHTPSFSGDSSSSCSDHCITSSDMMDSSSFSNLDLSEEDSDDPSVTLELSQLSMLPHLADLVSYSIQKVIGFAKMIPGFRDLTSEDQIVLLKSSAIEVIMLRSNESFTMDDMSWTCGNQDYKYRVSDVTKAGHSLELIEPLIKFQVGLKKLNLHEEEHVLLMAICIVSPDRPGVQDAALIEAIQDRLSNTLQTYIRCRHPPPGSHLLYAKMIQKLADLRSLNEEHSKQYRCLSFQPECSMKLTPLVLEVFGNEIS
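VDR–SRC2-3 interaction, FP format. Cmpds 23 nl via pintool, brief spin, 2 h ambient incubation.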
Active calls of the source: *; u = inconclusive; & = joins results of further samples. % is set by controls: 0 for no effect and ±100 for the full control effect; potency is the fitted concentration of half-maximal effect. The list is partial, so the mix of outcomes need not match the whole.

SMILES | VDR inh
CC(C)CC(NC(N)=O)C(=O)Nc1ccc2c(c1)OCO2 (stereo not drawn) | -11%
c1ccc(-c2nc(CSc3nnc(-c4cccs4)o3)cs2)cc1 | -14%
O=C(NCc1ccc(OC(F)(F)F)cc1)C1CC(c2ccccc2C(F)(F)F)=NO1 (stereo not drawn) | 1%
Cc1ccc(-n2c(COc3c(C)cccc3C)nnc2SCC(=O)Nc2nccs2)cc1 | 18%
COC(=O)c1[nH]c2cccc(Cl)c2c1NC(=O)CN(C)C1CCCCC1 | 7%
Cc1ccccc1S(=O)(=O)c1c(C)cc(C)n(CC(C)C)c1=O | 11%
CCCCNc1c([N+](=O)[O-])cc(C)cc1[N+](=O)[O-] | 2%
O=C(NCCn1cccn1)C1CCC(=O)N(CCc2ccccc2)C1 (stereo not drawn) | -3%
O=C(COC(=O)c1cc(=O)[nH]c(=O)[nH]1)Nc1cccc(S(=O)(=O)N2CCOCC2)c1 | -8%
CCOc1ccc(S(=O)(=O)NCc2ccncc2)cc1NC(=O)c1ccccc1 | 6%
CCN1CCN(c2ccc(NS(=O)(=O)c3c(C)nc4sccn4c3=O)cc2Cl)CC1 | -9%
Cc1cccc(NC(=S)N2CCC(NC(=O)C3CCCCC3)CC2)c1 | 4%
C=C(C)CN=CC1(C)CCC(C)=CO1 (stereo not drawn) | -5%
CSc1cccc(NC(=S)N(Cc2ccc(C)cc2)Cc2ccccn2)c1 | -16%
Cc1ccc2nc(-c3ccc(N=Nc4cc(S(=O)(=O)O)c5ccccc5c4O)cc3)sc2c1S(=O)(=O)O | 4%

3 compounds drawn at random from those above, as already listed:
SMILES | VDR inh
C=C(C)CN=CC1(C)CCC(C)=CO1 (stereo not drawn) | -5%
CCN1CCN(c2ccc(NS(=O)(=O)c3c(C)nc4sccn4c3=O)cc2Cl)CC1 | -9%
COC(=O)c1[nH]c2cccc(Cl)c2c1NC(=O)CN(C)C1CCCCC1 | 7%

Next compounds.
SMILES | VDR inh
Cc1onc(-c2ccccc2Cl)c1C(=O)NCCCc1ccccc1 | -17%
COc1ccccc1N1CCN(C(=O)c2c(C)cc(=O)oc2C)CC1 | 23%
N#CCCn1c(SCC(=O)c2c[nH]c3ccccc23)nc2ccccc21 | -5%
COc1ccc(CNC(=O)CCC2N=C3c4ccccc4N=C(SCc4ccccc4F)N3C2=O)cc1 (stereo not drawn) | 6%
CCOC(=O)c1cnc2nc(NCc3ccc(OC)c(OC)c3)[nH]n2c1=O | 8%
Cc1cc(Nc2ccccc2O)nc(C)n1 | -6%
Oc1ccc(Cl)cc1C1=NCCNC(C(F)(F)C(F)F)=C1 | -8%
CC1=C(c2ccccc2)C(O)(c2ccccc2)C(C)C1=O (stereo not drawn) | 1%
O=S(=O)(NCCc1csc2nc(-c3ccc(Cl)cc3)nn12)c1cccs1 | 10%
CC(C)CN1C(=O)C(=O)N(CC(=O)NC(C)CCc2ccccc2)C1=O (stereo not drawn) | 11%
COCCCNc1nc2c(c(=O)[nH]c(=O)n2C)n1CC(O)COc1ccc(Cl)cc1 (stereo not drawn) | u
O=C(CCS(=O)(=O)c1ccc2c(c1)NC(=O)CS2)NCCc1ccccc1 | 16%
O=C(C[n+]1cc2ccccc2c2ccccc21)c1ccccc1 | 13%
C/C(=N/N1CCN(Cc2cccc3ccccc23)CC1)c1cccnc1 | -12%
CCOc1ccc2nc(N3CCCC(C(=O)NCc4ccc(C)cc4)C3)sc2c1 (stereo not drawn) | -5%
CN1CCN(c2ncncc2-c2ccccc2Cl)CC1 | -3%
N#Cc1c(-c2ccc3c(c2)OCO3)cc[nH]c1=O | 8%
COC(=O)C1=C(O)C(C(=O)OC)C(c2ccc(C)cc2)C(C#N)(C#N)C1c1ccc(C)cc1 (stereo not drawn) | 6%
Cc1cc(C(F)F)n2nc(C(=O)Nc3c(C)cccc3C)nc2n1 | -5%
CCCSc1nsc(NC(=O)Nc2ccc(F)cc2F)n1 | -10%
C/C(=C\C(=O)OCCCCCCCCC(=O)O)C[C@@H]1OC[C@H](C[C@@H]2O[C@H]2[C@@H](C)[C@H](C)O)[C@@H](O)[C@H]1O | 5%&5%
Nc1nonc1-n1nnc(C(=O)N/N=C/c2cccs2)c1CSc1ccccc1 | 1%
COc1ccccc1N1CCN(Cc2cc(=O)c(OCC(=O)NC(C)C)co2)CC1 | u
CCCCC(c1nnnn1C(C)C)N1CCN(C(=O)c2ccco2)CC1 (stereo not drawn) | -15%
O=C(Nc1sc2c(c1C(=O)NCC1CCCO1)CCC2)c1cc(=O)c2ccccc2o1 (stereo not drawn) | 0%
Cc1cccc(NC(=O)c2oc(=O)c3ccccc3c2-c2ccccc2)c1C | -1%
CCOC(=O)c1c(C)oc2ccc(O)cc12 | -11%
CC(=O)c1cccc(Nc2nc(=O)c3cccnc3s2)c1 | -8%
C=CCN=c1scc(-c2ccccc2)n1/N=C/c1ccccn1 | -17%&12%
O=C(Nc1ccccc1N1CCN(C(=O)c2ccc(Cl)cc2)CC1)c1ccc(Br)cc1 | 11%
COc1cc(NCc2ccccc2)c2ncn(C(C)C)c2c1 | -24%
CC(C)N(Cc1ccccc1)C(=O)CSc1nccn1C | 11%
CC1CC(OC(=O)c2ccccc2C(=O)c2ccc(Cl)cc2)C(=O)O1 (stereo not drawn) | 1%
CC(C)(C)NC(=O)CCn1nc(-c2ccc(Cl)cc2)c2ccccc2c1=O | -14%
COc1ccc2c3c([nH]c2c1)C(C)N(C(C)=O)CC3 (stereo not drawn) | -15%
Cc1ccnc2nc(C(=O)OCC(=O)NC(=O)NCc3ccco3)nn12 | 3%
COc1cc2c(cc1NC(=O)C(C)N1CCN(S(=O)(=O)c3ccc(C)c(C)c3)CC1)oc1ccccc12 (stereo not drawn) | -5%
COc1ccc(Cl)cc1-c1nc(SCC(=O)N(C)C2CCS(=O)(=O)C2)n[nH]1 (stereo not drawn) | 26%
Oc1ccc(/C=N/Nc2nc(N3CCCC3)nc(N3CCCC3)n2)cc1O | -14%
CCCCC(=O)Nc1ccc2c(c1)nc(CCNC(=O)c1ccco1)n2C | -5%
C[C@H](NC(=O)OC(C)(C)C)c1nnc(SCc2c(F)cccc2Cl)o1 | 89µM*
COc1ccc(/C=C/C(=O)OCC(=O)N(C)c2c(N)n(Cc3ccccc3)c(=O)[nH]c2=O)cc1OC | 0%
Cc1cc(C(=O)Nc2c[nH]c(=O)[nH]c2=O)ccc1[N+](=O)[O-] | 3%
CCn1nc(NC(=O)c2ccco2)c2cc3ccccc3nc21 | -3%
O=C(O)CCN1CCOCC1 | 20%
O=C(O)c1cccnc1C(=O)c1ccccc1 | 2%
CC(=O)c1ccc(OC(C)C(=O)OCC(=O)NCCc2ccccc2)cc1 (stereo not drawn) | 0%
CC1CC(C)C(=O)C(C(CC2CC(=O)NC(=O)C2)OC(=O)CC(=O)c2ccccc2)C1 (stereo not drawn) | -7%
CS(=O)(=O)N(CC(=O)N1CCCC1)Cc1ccc(Cl)cc1 | -4%
CCOC(=O)c1cc(-c2ccccc2)sc1NC(=O)C(C)OC(=O)c1cccc(S(=O)(=O)N(C)C)c1 (stereo not drawn) | -14%
CCC(=O)N1CCc2cc(S(=O)(=O)CCC(=O)Nc3nc(C)cs3)ccc21 | 2%
CCN(CC)S(=O)(=O)c1ccc2[nH]c(=O)cc(C(=O)N(C)C3CCS(=O)(=O)C3)c2c1 (stereo not drawn) | -5%
O=C(Cn1ccn(-c2ccc(F)c(F)c2)c(=O)c1=O)Nc1ccccc1F | 14%
CS(=O)(=O)c1ccc(Cl)c(S(=O)(=O)NCc2ccccc2)c1 | 3%
CN(CC(=O)Nc1ccccc1Cl)C(=O)COC(=O)Cc1c(F)cccc1Cl | 16%
CCN(CC)C(=O)CSc1nc(C)cc(C)c1C#N | -3%
C#CCOCCOCCOCCNc1nc(N2CCN(C(=O)[C@H](CCCN=C(N)N)n3cc(C(N)[C@@H](C)CC)nn3)CC2)nc(N2CCN(C(=O)[C@H](CCC(=O)O)n3cc([C@@H](N)[C@H](C)CC)nn3)CC2)n1 (stereo partly drawn) | -7%
O=C(Nc1ccc2ccccc2c1)c1cccc2ccccc12 | 18%
C=CCOc1cccc(CNc2ccc3[nH]c(=O)[nH]c3c2)c1 | 6%
Cc1ccc(NC(=S)N(CCN(C)C)C(C)c2ccco2)c(C)c1 (stereo not drawn) | -15%

Next compounds follow:
SMILES | VDR inh
O=c1c2cc([N+](=O)[O-])ccc2nc2n1CCCC2 | -10%
Cc1ccc(S(=O)(=O)NNC(=O)NC23CC4CC(CC(C4)C2)C3)cc1 | 8%
O=C(Nc1cccc(-n2cnnn2)c1)C1CCCN(Cc2cccc(C(F)(F)F)c2)C1 (stereo not drawn) | 12%
COCCCN(C(=O)c1cc2c(s1)CCC2)c1c(N)n(Cc2ccccc2)c(=O)[nH]c1=O | u
O=C(Cn1c(=O)n(Cc2ccco2)c(=O)c2sc3ccccc3c21)Nc1ccc(F)cc1F | -13%
CCCCC1=CC2=CC(=O)C(C)(OC(=O)CC)C(=O)C2=CN1C1CCCCC1 (stereo not drawn) | -18%
O=C(Nc1ccc(S(=O)(=O)N2CCN(Cc3ccccc3)CC2)cc1)c1cnccn1 | 4%
COc1nnc(-c2ccc(C)c(S(=O)(=O)N(C)C)c2)c2ccccc12 | 4%
O=C(NCCCN1CCCC1)c1ccc(CS(=O)(=O)c2ccc(Br)cc2)o1 | -7%
Cc1c(NC(=O)C(C)c2ccc(CC(C)C)cc2)c(=O)n(-c2ccccc2)n1C (stereo not drawn) | -28%
CCC1(C)Cc2ccccc2C(Nc2c(C)n(C)n(-c3ccccc3)c2=O)=N1 (stereo not drawn) | -1%
NS(=O)(=O)c1cccc(NC(=O)c2ccc(NS(=O)(=O)c3cccc([N+](=O)[O-])c3)cc2)c1 | -4%
COc1ccc(NC(=O)N(C)C[C@H]2Oc3c(NC(=O)C4CCCCC4)cccc3C(=O)N([C@H](C)CO)C[C@@H]2C)cc1 | -5%
O=C1OC(c2cccs2)=N/C1=C/c1ccc(-c2cccc(C(=O)O)c2)o1 | 79µM*
Cc1cc(C)c2c(Cn3ccnc3)cc(=O)oc2c1 | 5%
COC(=O)c1ccc([C@@H]2Nc3c(cccc3C(F)(F)F)[C@@H]3C=CC[C@@H]32)cc1 | -4%
Cc1cc(NC(=O)CCC(=O)N(CC(=O)NC2CCCC2)c2ccc(Cl)cc2)no1 | -6%
O=C(N1CCOCC1)N1CCN(c2ccccc2F)CC1 | -18%
Cc1ccc(C(=O)/C=C/Nc2ccc(S(=O)(=O)Nc3onc(C)c3C)cc2)cc1 | -15%
CC1CCCN(C(=O)Cc2ccc(F)cc2)C1 (stereo not drawn) | -18%
Cc1cc(C)n(-c2nc3ccccc3nc2N2CCN(c3cccc(C(F)(F)F)c3)CC2)n1 | -3%
CC(C)c1ccc(S(=O)(=O)N2CCN(C(=O)CN3C(=O)NC4(CCCCC4)C3=O)CC2)cc1 | -2%
N#Cc1ccsc1NC(=O)CSc1nnnn1-c1ccc(O)cc1 | 8%
CSCCc1nc(SCC(=O)Nc2nnc(C)s2)[nH]c1C | -1%
O=C(NNc1cc(C(F)(F)F)ccc1Cl)c1ccc(=O)[nH]c1 | -25%
Cc1ccc(N2C(SCC(=O)O)=NC(=Nc3cccc(C)c3)C23CCCC3)cc1 | -14%
CCOC(=O)Cn1cc(C#N)c2cccc(CC)c21 | 16%
CC(O)CN1C(=O)C(CC(=O)Nc2ccc(Cl)cc2)SC1=Nc1ccccc1 (stereo not drawn) | -4%
CCOc1ccc(-c2nc(CN3CCCC(C(=O)N4CCOCC4)C3)c(C)o2)cc1 (stereo not drawn) | 11%
O=C(Nc1ccccc1)Nc1scc2c1c(=O)oc1ccccc12 | -8%
O=C(O)CSc1ccnc2cc(Cl)ccc12 | 9%
Cc1cccc2nc(Cn3c(=O)n(-c4ccccc4)c(=O)c4c5c(sc43)CCC5)cc(=O)n12 | -7%
CCOc1ccc(C(=O)NCc2ccco2)cc1OC | -20%
CNc1sc(C(=O)c2ccccc2F)c(N)c1-c1nc2ccccc2s1 | -14%
COc1c(OC)c(O)c2c(=O)cc(-c3c(O)cccc3O)oc2c1OC | 0%
CC(C)CCNC(=O)CN(Cc1ccccc1)C(=O)CCC(=O)Nc1nccs1 | -10%

Filtered by structure: those above with an aryl methoxy group.
SMILES | VDR inh
COc1ccccc1N1CCN(C(=O)c2c(C)cc(=O)oc2C)CC1 | 23%
COc1ccc(CNC(=O)CCC2N=C3c4ccccc4N=C(SCc4ccccc4F)N3C2=O)cc1 (stereo not drawn) | 6%
CCOC(=O)c1cnc2nc(NCc3ccc(OC)c(OC)c3)[nH]n2c1=O | 8%
COc1ccccc1N1CCN(Cc2cc(=O)c(OCC(=O)NC(C)C)co2)CC1 | u
COc1cc(NCc2ccccc2)c2ncn(C(C)C)c2c1 | -24%
COc1ccc2c3c([nH]c2c1)C(C)N(C(C)=O)CC3 (stereo not drawn) | -15%
COc1cc2c(cc1NC(=O)C(C)N1CCN(S(=O)(=O)c3ccc(C)c(C)c3)CC1)oc1ccccc12 (stereo not drawn) | -5%
COc1ccc(Cl)cc1-c1nc(SCC(=O)N(C)C2CCS(=O)(=O)C2)n[nH]1 (stereo not drawn) | 26%
COc1ccc(/C=C/C(=O)OCC(=O)N(C)c2c(N)n(Cc3ccccc3)c(=O)[nH]c2=O)cc1OC | 0%
COc1nnc(-c2ccc(C)c(S(=O)(=O)N(C)C)c2)c2ccccc12 | 4%
COc1ccc(NC(=O)N(C)C[C@H]2Oc3c(NC(=O)C4CCCCC4)cccc3C(=O)N([C@H](C)CO)C[C@@H]2C)cc1 | -5%
CCOc1ccc(C(=O)NCc2ccco2)cc1OC | -20%
COc1c(OC)c(O)c2c(=O)cc(-c3c(O)cccc3O)oc2c1OC | 0%

Bioassay records from PubChem.
